Bioassay records (PubChem)
NOMO-1 viab = STK33 inhibitor candidate reducing NOMO-1 cell viability; AID 2330; inhibition, % (test concentration not listed); 37,000 tested, 7.5% active; NOMO-1 AML viability, CellTiter-Glo luminescence, 72 h;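 active = most replicates above 80%; inconclusive = exactly half above 80%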;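 also: wells of about 30 µL received 25 nL stock; 0% = median of vehicle wells and 100% = reference inhibitor level; the first replicate is given; inactives centre near 10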
Numbers without * were called inactive; ? = inconclusive.

SMILES | NOMO-1 viab
C[C@H](CO)N1C[C@H](C)[C@@H](CN(C)S(=O)(=O)c2ccccc2)Oc2c(NS(C)(=O)=O)cccc2C1=O | -2.2
Cc1cc2nn(-c3cccc4ccccc34)nc2cc1NC(=S)NC(=O)COc1ccccc1 | 9.6
CC(C)NC(=O)N(C)C[C@H]1Oc2ccc(NC(=O)CCN3CCOCC3)cc2CC(=O)N([C@@H](C)CO)C[C@@H]1C | -6.3
C[C@@H]1CN([C@@H](C)CO)C(=O)Cc2cc(NC(=O)Nc3ccc4c(c3)OCO4)ccc2O[C@@H]1CN(C)Cc1ccc(C(=O)O)cc1 | -0.7
Cc1ccc(S(=O)(=O)N2Cc3ccccc3CC2C(=O)Nc2sc3c(c2C#N)CCCC3)cc1 (configuration not stated) | 25.0
C[C@@H]1CN([C@@H](C)CO)C(=O)c2cc(NS(=O)(=O)c3ccccc3)ccc2O[C@H]1CN(C)Cc1ccccc1 | 22.3
O=[N+]([O-])c1ccc(S(=O)(=O)CC2CSc3nc4ccccc4n32)cc1 (configuration not stated) | 58.0
O=C(Nc1ncc(C(F)(F)F)cc1Cl)C1COc2ccccc2O1 (configuration not stated) | 4.0
Cc1noc(C)c1NC(=O)N(C)C[C@H]1OCCCC[C@@H](C)Oc2ccc(NC(=O)Nc3ccc4c(c3)OCO4)cc2C(=O)N([C@H](C)CO)C[C@@H]1C | 5.6
C=C1C(=O)O[C@H]2[C@H]1[C@@H](OC(=O)C(C)(O)CCl)C(OC(C)=O)/C(C(=O)OC)=C\CC[C@@]1(C)O[C@H]21 (some centres not stated) | 109.1*
Fc1ccc(Nc2nc3ccccc3nc2Nc2ccc(F)cc2)cc1 | 135.3*
CC(C)NC(=O)Nc1ccc2c(c1)C(=O)N([C@@H](C)CO)C[C@H](C)[C@@H](CN(C)C(=O)Nc1ccc(F)cc1)O2 | 15.5
C[C@H](CO)N1C[C@H](C)[C@@H](CN(C)C(=O)Nc2ccc3c(c2)OCO3)Oc2c(NC(=O)C3CC3)cccc2C1=O | 3.6
C[C@@H]1CN([C@@H](C)CO)C(=O)Cc2cc(NC(=O)Nc3cccc4ccccc34)ccc2O[C@@H]1CN(C)S(=O)(=O)c1ccc(F)cc1 | 35.8
C[C@@H]1CN([C@H](C)CO)C(=O)c2cc(NC(=O)c3ccncc3)ccc2O[C@H]1CN(C)Cc1ccc(C(=O)Nc2ccccc2N)cc1 | ?
COc1ccc(/C=C2/C(=O)C(C)(C(C)C)CCC2C)cc1 (configuration not stated) | 93.8*
Cc1cc(C)cc(OCC(=O)Nc2cccc(-c3nc4ccccc4o3)c2)c1 | 3.7
Cc1cc(C)nc(SCc2csc(N)n2)n1 | -2.7
CCn1c(SCC(=O)Nc2ccc(Cl)cc2Cl)nnc1-c1cccc(C)c1 | -12.8
COc1ccc(C(NC(=O)c2cccnc2)c2cc(Cl)c3cccnc3c2O)cc1OC (configuration not stated) | 108.9*

6 compounds already listed, sorted by length of the SMILES, low to high:
SMILES | NOMO-1 viab
Fc1ccc(Nc2nc3ccccc3nc2Nc2ccc(F)cc2)cc1 | 135.3*
CCn1c(SCC(=O)Nc2ccc(Cl)cc2Cl)nnc1-c1cccc(C)c1 | -12.8
O=[N+]([O-])c1ccc(S(=O)(=O)CC2CSc3nc4ccccc4n32)cc1 (configuration not stated) | 58.0
C[C@@H]1CN([C@H](C)CO)C(=O)c2cc(NC(=O)c3ccncc3)ccc2O[C@H]1CN(C)Cc1ccc(C(=O)Nc2ccccc2N)cc1 | ?
C[C@@H]1CN([C@@H](C)CO)C(=O)Cc2cc(NC(=O)Nc3ccc4c(c3)OCO4)ccc2O[C@@H]1CN(C)Cc1ccc(C(=O)O)cc1 | -0.7
Cc1noc(C)c1NC(=O)N(C)C[C@H]1OCCCC[C@@H](C)Oc2ccc(NC(=O)Nc3ccc4c(c3)OCO4)cc2C(=O)N([C@H](C)CO)C[C@@H]1C | 5.6

Looked up by compound from the list above, 2 records:
SMILES | NOMO-1 viab
C=C1C(=O)O[C@H]2[C@H]1[C@@H](OC(=O)C(C)(O)CCl)C(OC(C)=O)/C(C(=O)OC)=C\CC[C@@]1(C)O[C@H]21 (some centres not stated) | 109.1*
C[C@H](CO)N1C[C@H](C)[C@@H](CN(C)C(=O)Nc2ccc3c(c2)OCO3)Oc2c(NC(=O)C3CC3)cccc2C1=O | 3.6

An excerpt of these results, as a markdown table.
| canonical_smiles | NOMO-1 viab |
| --- | --- |
| COc1ccc(/C=C2/C(=O)C(C)(C(C)C)CCC2C)cc1 (configuration not stated) | 93.8* |
| Fc1ccc(Nc2nc3ccccc3nc2Nc2ccc(F)cc2)cc1 | 135.3* |

Later entries.
SMILES | NOMO-1 viab
Cc1ccc(N2C(=O)/C(=C/C=C/c3ccccc3)SC2=S)cc1 | 14.2
O=C(C1CC(=O)N(c2ccccc2)C1)N(Cc1ccccc1)Cc1ccccc1 (configuration not stated) | 44.4
C[C@@H]1CN([C@@H](C)CO)C(=O)Cc2cc(NS(=O)(=O)c3cccs3)ccc2O[C@@H]1CN(C)C(=O)Nc1ccccc1 | 7.1
Cc1ccc(Nc2nc(N)nc(CSc3nccn3C)n2)cc1 | -3.8
Cc1cc(C)c(NC(=O)CSc2nc(O)cc(=O)[nH]2)c(C)c1 | 5.3
C[C@H]1CN([C@@H](C)CO)C(=O)Cc2cc(NC(=O)Cc3ccccc3)ccc2O[C@H]1CN(C)CC1CC1 | 15.9
O=C(COc1ccc(I)cc1)Nc1cccnc1 | -8.2
C[C@@H]1CN([C@@H](C)CO)C(=O)c2cccc(NS(=O)(=O)c3cn(C)cn3)c2O[C@@H]1CN(C)Cc1ccc(C(=O)O)cc1 | -9.9
C[C@H](CO)N1C[C@H](C)[C@H](CN(C)C)Oc2ccc(NC(=O)CCC(F)(F)F)cc2CC1=O | -10.3
COc1ccc(NC(=O)N(C)C[C@@H]2Oc3ccc(NC(=O)Nc4c(C)noc4C)cc3C(=O)N([C@H](C)CO)C[C@H]2C)cc1 | 16.7
COc1ccc(S(=O)(=O)Nc2ccc3c(c2)CC(=O)N([C@H](C)CO)C[C@@H](C)[C@H](CN(C)Cc2ccc(C(=O)O)cc2)O3)cc1 | -12.4
CC(=O)Nc1ccc(NC(=O)CC2Sc3ccc(C(F)(F)F)cc3NC2=O)cc1 (configuration not stated) | 2.7
COc1ccc(OC)c(C2N=C(Nc3nc4ccccc4s3)NC3=C2C(=O)CC(C)(C)C3)c1 (configuration not stated) | 115.2*
COc1ccc(NC(=O)Nc2ccc3c(c2)C(=O)N([C@H](C)CO)C[C@H](C)[C@H](CN(C)Cc2ccc(C(F)(F)F)cc2)OCCCC[C@@H](C)O3)cc1 | 121.8*
Cc1noc(C)c1S(=O)(=O)Nc1ccc2c(c1)C(=O)N([C@H](C)CO)C[C@H](C)[C@@H](CN(C)C(=O)Nc1cccc3ccccc13)O2 | 2.4
N#C/C(=C\c1ccc(Cl)c(Cl)c1)c1ccc(NC(N)=O)cc1 | -7.5
C[C@H]1CN([C@@H](C)CO)C(=O)Cc2cc(NC(=O)c3ccncc3)ccc2O[C@@H]1CN(C)S(=O)(=O)c1ccc(F)cc1 | 16.5
C[C@H]1CN([C@@H](C)CO)C(=O)c2cccc(NC(=O)C3CCOCC3)c2O[C@H]1CN(C)Cc1ccc(C(F)(F)F)cc1 | -5.5
C[C@H]1CN([C@@H](C)CO)C(=O)c2cccc(NC(=O)c3nc4ccccc4s3)c2O[C@H]1CN(C)S(=O)(=O)c1cccs1 | 33.1
C[C@H]1CN([C@@H](C)CO)C(=O)Cc2cc(NC(=O)CCC(F)(F)F)ccc2O[C@H]1CN(C)C(=O)Nc1ccccc1 | -6.5
Cc1ccc(N(C(C)C(=O)NC2CC2)S(C)(=O)=O)cc1 (configuration not stated) | -19.0
O=C(NCc1ccco1)c1cnn2c(C(F)F)cc(-c3ccccc3)nc12 | 26.8
CC(C)NC(=O)Nc1ccc2c(c1)C(=O)N([C@@H](C)CO)C[C@@H](C)[C@@H](CN(C)C(=O)Nc1ccc(F)cc1)O2 | -15.0
C[C@H]1CN([C@@H](C)CO)C(=O)c2cc(NC(=O)Nc3ccc(C(F)(F)F)cc3)ccc2O[C@H]1CN(C)C | 32.6
C[C@@H]1CCCCO[C@@H](CN(C)C(=O)CCCN(C)C)[C@@H](C)CN([C@H](C)CO)C(=O)c2cc(NC(=O)Nc3cccc4ccccc34)ccc2O1 | -20.6
Cc1noc(C)c1NC(=O)Nc1ccc2c(c1)C(=O)N([C@@H](C)CO)C[C@H](C)[C@@H](CN(C)Cc1ccncc1)O2 | 8.5
O=c1c2ccccc2nc(-c2ccc(Cl)cc2Cl)n1CCCOc1ccccc1[N+](=O)[O-] | 31.0
CC(C)(C)c1cc(NC(=O)CSc2n[nH]c(N)n2)cc(C(C)(C)C)c1 | 39.8
C[C@H](CO)N1C[C@H](C)[C@H](CN(C)C(=O)Nc2ccc(F)cc2)Oc2c(cccc2N(C)C)C1=O | 12.6
C[C@@H]1CCCCO[C@H](CN(C)S(=O)(=O)c2ccccc2)[C@@H](C)CN([C@H](C)CO)C(=O)c2cc(NC(=O)Nc3ccc4c(c3)OCO4)ccc2O1 | 0.3
C[C@H]1CN([C@@H](C)CO)C(=O)Cc2cc(NS(C)(=O)=O)ccc2O[C@@H]1CN(C)S(=O)(=O)c1ccc(Cl)cc1 | 2.6
C[C@@H]1CN([C@@H](C)CO)C(=O)c2cc(NC(=O)Nc3ccc(F)cc3)ccc2O[C@H]1CN(C)CC1CCCCC1 | 39.5
COc1ccccc1NC(=O)Cn1cnc2sc(-c3ccccc3)cc2c1=O | 21.9
C[C@H](CO)N1C[C@H](C)[C@H](CN(C)Cc2ccc(C(F)(F)F)cc2)Oc2c(NC(=O)NC3CCCCC3)cccc2C1=O | 56.3
COc1ccc(NC(=O)N(C)C[C@@H]2Oc3ccc(NC(=O)CCCN(C)C)cc3C(=O)N([C@@H](C)CO)C[C@@H]2C)cc1 | -7.9
C[C@@H]1CN([C@H](C)CO)C(=O)c2cc(NS(=O)(=O)c3cccs3)ccc2O[C@H]1CN(C)C(=O)Nc1ccc(F)cc1 | 10.5
C[C@@H]1CN([C@H](C)CO)C(=O)Cc2cc(NC(=O)C3CCCCC3)ccc2O[C@@H]1CN(C)Cc1ccc(Cl)c(Cl)c1 | 114.2*
Cc1sc2c(c1C)c(=O)nc1scc(CC(=O)NCCO)n12 | -14.3
CNC[C@@H]1Oc2c(NC(=O)c3cc(C)nn3C)cccc2C(=O)N([C@H](C)CO)C[C@@H]1C | -7.2
Cc1noc(C)c1S(=O)(=O)N(C)C[C@H]1Oc2ccc(NC(=O)Nc3ccccc3)cc2CC(=O)N([C@H](C)CO)C[C@H]1C | 25.5
C[C@@H]1CN([C@@H](C)CO)C(=O)c2cccc(NS(=O)(=O)c3ccc(Cl)cc3)c2O[C@@H]1CN(C)C(=O)Nc1ccc(F)cc1 | 14.9
CC12C=CC(=O)C=C1CCC1C2=CCC2(C)C1CC[C@@H]2C(=O)CN1CCN(c2cc(N3CCCC3)nc(N3CCCC3)n2)CC1 (some centres not stated) | 60.7
Cc1ccc(S(=O)(=O)N(C)C[C@H]2Oc3ccc(NC(=O)Cc4ccccc4)cc3CC(=O)N([C@H](C)CO)C[C@H]2C)cc1 | 15.4
COC(=O)c1cc(NC(=O)CSc2nnc(C)s2)ccc1Cl | 19.6
C[C@H]1CN([C@@H](C)CO)C(=O)Cc2cc(NC(=O)CCC(F)(F)F)ccc2O[C@H]1CN(C)Cc1ccncc1 | 1.1
O=C(CN1CCCCC1)Nc1nonc1NC(=O)CN1CCCCC1 | 1.0
Cc1ccc2[nH]c(=O)c(CN(C)S(C)(=O)=O)cc2c1 | 19.8
O=S(=O)(Nc1ccc(Cl)cn1)c1cccc(S(=O)(=O)c2ccccc2)c1 | 7.2
C[C@@H]1CN([C@@H](C)CO)C(=O)c2cc(NS(=O)(=O)c3ccc(F)cc3)ccc2O[C@H]1CN(C)S(C)(=O)=O | 8.2
C[C@H](CO)N1C[C@H](C)[C@H](CN(C)S(=O)(=O)c2ccc(F)cc2)Oc2c(NC(=O)Nc3cccc4ccccc34)cccc2C1=O | 72.1
C[C@@H]1CN([C@H](C)CO)C(=O)Cc2cc(NS(=O)(=O)c3ccc(F)cc3)ccc2O[C@@H]1CN(C)S(=O)(=O)c1ccc(Cl)cc1 | 16.2
C[C@H](CO)N1C[C@H](C)[C@H](CN(C)CC2CCCCC2)Oc2c(NS(=O)(=O)c3ccccc3)cccc2C1=O | 4.5
Cc1noc(C)c1NC(=O)N(C)C[C@@H]1Oc2c(NC(=O)NC(C)C)cccc2C(=O)N([C@@H](C)CO)C[C@@H]1C | 14.0
Cc1noc(C)c1NC(=O)Nc1ccc2c(c1)CC(=O)N([C@@H](C)CO)C[C@@H](C)[C@@H](CN(C)S(=O)(=O)c1c(C)noc1C)O2 | 26.5
C[C@@H]1CN([C@@H](C)CO)C(=O)c2cc(NC(=O)C3CCCCC3)ccc2O[C@@H]1CN(C)C(=O)Nc1cccc2ccccc12 | 8.3
Cc1ccc(F)c(NC(=O)CSc2ncn(-c3ccccc3)n2)c1 | 32.7
COc1ccc(S(=O)(=O)N(C)C[C@@H]2Oc3c(NC(=O)Nc4ccc(F)cc4)cccc3C(=O)N([C@@H](C)CO)C[C@H]2C)cc1 | 6.4
C[C@@H]1CCCCO[C@@H](CN(C)Cc2ccc(C(=O)O)cc2)[C@@H](C)CN([C@H](C)CO)C(=O)c2cc(NS(=O)(=O)c3cccs3)ccc2O1 | -14.1
C[C@H]1CN([C@@H](C)CO)C(=O)Cc2cc(NC(=O)Nc3ccc4c(c3)OCO4)ccc2O[C@@H]1CN(C)S(=O)(=O)c1cccs1 | -11.7
COc1ccc(-c2ccc(CCC(=O)O)n2-c2ccc(Br)cc2)cc1 | 3.8

(listing goes on)
SMILES | NOMO-1 viab
COc1ccc(S(=O)(=O)N(C)C[C@H]2OCCCC[C@@H](C)Oc3ccc(NS(=O)(=O)c4cn(C)cn4)cc3C(=O)N([C@H](C)CO)C[C@@H]2C)cc1 | 0.9
CC12CCC(CC(=O)c3ccccc3)(CC1)CC2 | 43.4
C[C@@H]1CN([C@@H](C)CO)C(=O)c2cccc(NC(=O)c3nc4ccccc4s3)c2O[C@H]1CN(C)S(=O)(=O)c1ccc(F)cc1 | 57.6
C[C@H](CO)N1C[C@H](C)[C@@H](CN(C)C(=O)Nc2ccccc2)Oc2c(NC(=O)NC3CCCCC3)cccc2C1=O | 4.3
COc1ccc(S(=O)(=O)Nc2cccc3c2O[C@@H](CN(C)S(=O)(=O)c2ccc(OC)cc2)[C@@H](C)CN([C@H](C)CO)C3=O)cc1 | -0.7

The list is partial (hit frequency here may not be typical).
